Compound activity from PubChem BioAssay.
N370S GC mod: qHTS Assay for Inhibitors and Activators of N370S glucocerebrosidase as a Potential Chaperone Treatment of Gaucher Disease. actives 0.092% (n = 330,000). AID 2101, 2009. Potency, µM (doses to about 59.4 µM), without a hit: at the highest dose activity change, negative = inhibition, most hits filed as inhibitors. Lysosomal acid glucosylceramidase (Homo sapiens), P04062. N370S GC spleen homogenate, 4MU-glucoside fluorescence;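 also: 0% = full enzyme activity and -100% = no enzyme basal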
FEN1 inh: qHTS Assay for the Inhibitors of Human Flap endonuclease 1 (FEN1); actives 0.35% (n = 390,000); P39748; Potency, µM (top dose mostly 114 µM), without a hit: at the highest dose activity change, negative = inhibition, usual class: inhibitors; Recombinant FEN1 flap cleavage, fluorescence, 15 min; also: nearly all actives have a fitted effect of over 65% in size
Target sequence (P39748 whole entry, looked up): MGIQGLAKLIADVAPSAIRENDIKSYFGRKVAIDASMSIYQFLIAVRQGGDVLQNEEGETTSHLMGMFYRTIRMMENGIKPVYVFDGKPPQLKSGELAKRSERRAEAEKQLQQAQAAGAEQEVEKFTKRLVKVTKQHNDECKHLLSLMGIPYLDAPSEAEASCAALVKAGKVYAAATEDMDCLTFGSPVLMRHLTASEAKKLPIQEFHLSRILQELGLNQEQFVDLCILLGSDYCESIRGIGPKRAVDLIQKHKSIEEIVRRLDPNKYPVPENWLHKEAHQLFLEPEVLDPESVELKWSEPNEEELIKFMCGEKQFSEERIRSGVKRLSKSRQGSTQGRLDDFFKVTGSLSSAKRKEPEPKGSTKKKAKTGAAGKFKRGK
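Quantitative HTS format: each compound was titrated, incubated with 10 nM nuclease for 15 min at room temperature, then challenged with flap substrate at 50 nM final. Signal change over 15 min gave concentration–effect curves.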
* hit, by the source's call; & = joins results of further samples; [ ] = remark or other dose. Calls follow the shape of the dose curve; as a rule, active = well fitted curve in the direction sought with a large enough effect; inconclusive = small, poorly fitted or top-dose-only effect, or another doubt; inactive = no such curve, though single readings can be large; an effect the other way counts as inactive or inconclusive. Unless noted, % is scaled to controls: 0 for no effect and ±100 for the full control effect; potency is read from the fitted curve at half-maximal effect. An excerpt; most or all hits stand in other tables.

For CN1CCN(NS(=O)(=O)c2cccs2)CC1 the results were N370S GC mod -3.2% and FEN1 inh -3.9%.
`COc1cc(OC)c(C(=O)OCN2C(=O)c3ccccc3C2=O)cc1OC` gave N370S GC mod -5.3% and FEN1 inh -4.6%.
CC(C)c1ccc(C2NC(=O)c3n[nH]c(-c4cccs4)c32)cc1 (stereo not given) was read as FEN1 inh 6.3%.
`O=C(Cc1c(F)cccc1Cl)NNC(=O)c1cccs1` gave FEN1 inh 20.0%.
For CC(C)C[C@H](NC(=O)C1CCN(S(=O)(=O)c2ccccc2)CC1)C(=O)NCc1ccncc1 the results were N370S GC mod 0.3% and FEN1 inh 19.5%.
CCCc1cc(C(=O)Nc2ccc(C#N)cc2)no1 was read as N370S GC mod 9.6% and FEN1 inh -2.1%.
Screening CC(C)(C)c1ccc(C(=O)Nc2ccc(OCc3cc(=O)n4ccsc4n3)cc2)cc1 returned FEN1 inh 19.7%.
`COc1ccc(-c2nn(-c3ccccc3)cc2C(=O)N2CCN(S(=O)(=O)c3ccccc3C#N)CC2)cc1` gave N370S GC mod -4.4% and FEN1 inh -4.1%.
For O=C1C(=O)N(c2nccs2)C(c2ccccc2)/C1=C(\O)c1ccc2c(c1)OCCO2 (stereo not given) the results were N370S GC mod -7.4%.
For CNC(=O)NNC(=O)c1csc(Cc2c(Cl)sc3ccc(Cl)cc23)n1 the results were N370S GC mod -4.6% and FEN1 inh -11.8%.
For O=C(N=C1SC2CS(=O)(=O)CC2N1c1cccc(Cl)c1Cl)C1CCCO1 (stereo not given) the results were N370S GC mod -1.0% and FEN1 inh -5.2%.
Screening Cc1ccc(S(=O)(=O)N2[C@@H](c3ccccc3)C(C(=O)O)=CC[C@H]2c2cccc(C)c2)cc1 returned N370S GC mod 2.4% and FEN1 inh -10.9%.
COc1ccccc1CNC(=O)CC12CC3CC(CC(Br)(C3)C1)C2 was read as N370S GC mod 5.3% and FEN1 inh 13.5%.
Screening Cc1c(NC(=O)c2cccc(NC(=O)Cc3ccccc3F)c2)c(=O)n(-c2ccccc2)n1C returned FEN1 inh 12.5%.
Screening CCOC(=O)Cn1c(C(C)=O)nc2ccccc21 returned N370S GC mod -3.3% and FEN1 inh -2.0%.
`CN(CC(=O)Nc1ccc(F)cc1)C(=O)COC(=O)/C=C/c1cccs1` gave N370S GC mod -4.3% and FEN1 inh -5.3%.
CCCOc1ccc(C(=O)N2CCN(c3ccc(NC(=O)CC)cc3Cl)CC2)cc1 was read as N370S GC mod -23.0% and FEN1 inh -14.4%.
For C/C=C/C(=O)N1CC2(CC(c3cccc(NC(=O)CC(c4ccccc4)c4ccccc4)c3)=NO2)C[C@H]1C(N)=O (stereo not given in full) the results were N370S GC mod 12.1% and FEN1 inh -3.2%.
For CCN(C(=O)c1ccco1)C1C2CC3CC(C2)CC1C3 (stereo not given) the results were N370S GC mod 2.3% and FEN1 inh 15.3%.
`CCNc1nc(=S)nc(NCc2ccccc2)[nH]1` gave N370S GC mod -18.7%.
Screening O=C(NC1CC(=O)N(c2ccc(Cl)cc2)C1)N1CCN(C(=O)c2ccco2)CC1 (stereo not given) returned N370S GC mod -0.3% and FEN1 inh 7.4%.
Screening COc1ccc(N2CCN(C(=O)CCc3c(C)nc4cc(-c5cccc(F)c5)nn4c3C)CC2)cc1 returned FEN1 inh 9.7%.
`COc1cccc(CNC(=O)CSc2nnc(C)c3c(C)n(-c4ccccc4)nc23)c1OC` gave FEN1 inh 10.0%.
Screening S=c1[nH]nc(COc2ccccc2)n1C1CCCCC1 returned N370S GC mod -4.5% and FEN1 inh -4.3%.
`CC(C(=O)NC(C)(C)C)N1C(=O)c2cccc3cccc(c23)C1=O` (stereo not given) gave N370S GC mod 14.9% and FEN1 inh -3.0%.
For CCN(CC(=O)NCc1ccccn1)S(=O)(=O)c1cc(Cl)ccc1Cl the results were N370S GC mod -5.0% and FEN1 inh -2.8%.
`Cn1c(=O)[nH]c(=O)c2c1nc(N1CCCCC1)n2CC(O)COc1ccccc1` (stereo not given) gave N370S GC mod -2.8% and FEN1 inh -2.4%.
For Cc1cc(C)nc(CCNC(=O)CC2C(=O)NCCN2Cc2ccc(F)cc2Cl)n1 (stereo not given) the results were N370S GC mod -3.8% and FEN1 inh -1.3%.
`O=C(CN1C(=O)c2ccccc2S1(=O)=O)N1CCN(Cc2ccc3c(c2)OCO3)CC1` gave N370S GC mod 3.7% and FEN1 inh 5.9%.
Screening CCN1CCN(Cc2nc3c(c(=O)n(C)c(=O)n3C)n2Cc2cccc3ccccc23)CC1 returned N370S GC mod -8.4% and FEN1 inh -0.6%.
`COC(=O)c1c(-c2ccccc2)noc1C` gave N370S GC mod -4.2% and FEN1 inh 2.8%.
For O=S(=O)(Nc1ccc(O)c(NS(=O)(=O)c2ccccc2)c1)c1ccccc1 the results were N370S GC mod -4.4% and FEN1 inh 10.2%.
For COc1ccc(N(C)C(=S)Nc2ccc3nc(C)c(C)nc3c2)cc1 the results were N370S GC mod -9.2% and FEN1 inh -6.9%.
`COc1cccc(-c2cc(C(F)(F)F)nc(-n3cccn3)n2)c1` gave N370S GC mod 7.5% and FEN1 inh -0.1%.
Screening CN(C)CC(=O)Nc1ccc(Oc2ccc(Cl)cc2)cc1 returned N370S GC mod -22.1% and FEN1 inh -15.5%.
COc1ccc(OC(C)C(=O)N2CCOCC2)cc1 (stereo not given) was read as N370S GC mod 2.5% and FEN1 inh 1.7%.
`COC(=O)c1sc(NC(=S)NC(=O)c2ccccc2)nc1C` gave N370S GC mod 2.0% and FEN1 inh 9.9%.
`c1ccc(NC2=Nc3cccc4cccc2c34)cc1` gave N370S GC mod inconclusive and FEN1 inh 3.5%.
For N#Cc1cc([N+](=O)[O-])ccc1N1CCN(c2ccccc2O)CC1 the results were N370S GC mod -15.6% and FEN1 inh 3.8%.
COc1ccc([N+](=O)[O-])cc1NC(=O)C(C)Sc1ccc(C)cc1 (stereo not given) was read as N370S GC mod -17.4% and FEN1 inh inconclusive.
COC(=O)c1ccc(/C=N/NC(=O)CC(=O)NCc2cccnc2)cc1 was read as N370S GC mod 3.1% and FEN1 inh -11.7%.
O=C(O)c1ccc2c(c1)C(=O)N([C@]1(C(=O)O)CC1c1ccccc1)C2=O (stereo not given in full) was read as N370S GC mod -0.5%.
Screening N#C/C(=N\Nc1ccc(F)cc1)C(=N)N1CCCCCC1 returned N370S GC mod -7.5% and FEN1 inh 0.0%.
Screening CN(C)CCCOC(=O)c1cc2ccccc2o1 returned N370S GC mod 1.7% and FEN1 inh -3.5%.
`Cc1sc(NC(=O)c2cccs2)c(C(N)=O)c1C` gave N370S GC mod -5.5% and FEN1 inh -8.5%.
Screening O=C(NCCCn1ccnc1)c1cc2c(s1)CCCCC2 returned N370S GC mod 2.5% and FEN1 inh 7.0%.
For Cc1cc(C)nc(NS(=O)(=O)c2ccc(NC(=O)CSc3ncn[nH]3)cc2)n1 the results were N370S GC mod -5.7% and FEN1 inh 1.5%.
For Cc1ccc(C(=O)Nc2ccc3[nH]c(=O)[nH]c3c2)c(C)c1 the results were N370S GC mod -6.3% and FEN1 inh 1.5%.
`CCn1nc([N+](=O)[O-])c2c(-c3nc4ccccc4o3)c(N)n(CCCOC)c2c1=O` gave N370S GC mod 20.0% and FEN1 inh -23.0%.
COc1ccc(NS(=O)(=O)c2ccc3c(c2)N(C(C)=O)CC(C)S3)c(OC)c1 (stereo not given) was read as N370S GC mod -6.5% and FEN1 inh 16.8%.
Screening c1ccc(CCNc2nc(-c3cccnc3)cs2)cc1 returned N370S GC mod -1.6% and FEN1 inh -4.6%.
CCO[C@@H]1OC(C(=O)N2CCOCC2)=C[C@H](c2coc3ccccc3c2=O)[C@H]1CCCO was read as N370S GC mod 8.7% and FEN1 inh 11.1%.
For O=S(=O)(c1ccc2ccccc2c1)N1CCCOC1 the results were N370S GC mod 29.6%[2.35 µM] and FEN1 inh -3.1%.
CC(=O)c1cc(-c2ccccc2)n(CCC(=O)NC2CCC(C)CC2)c1C (stereo not given) was read as N370S GC mod 11.5% and FEN1 inh -11.3%.
`COc1ccc(N2CCN(CC(=O)c3c[nH]c4ccccc34)CC2)cc1` gave N370S GC mod -0.4% and FEN1 inh -6.9%.
COc1cc2c(cc1OC)CN(S(=O)(=O)c1ccc3c(c1)OCCO3)CC2 was read as N370S GC mod 0.6% and FEN1 inh -19.4%.
For Cc1cc(C)cc(NC(=S)N2CCN(C(=O)c3ccco3)CC2)c1 the results were N370S GC mod -3.0% and FEN1 inh -17.2%.
Cc1cc(Cl)ccc1OCC(=O)Nc1ccc(CN2CCOCC2)cc1 was read as N370S GC mod -10.7% and FEN1 inh 10.5%.
COc1ccccc1CNCC(O)(c1ccc(Cl)cc1)c1ccc(Cl)cc1 was read as N370S GC mod -27.8% and FEN1 inh -4.4%.
For CCOC(=O)c1c(NC(=O)CNC2CCCCC2)sc(C)c1C the results were N370S GC mod 11.3% and FEN1 inh -4.6%.
Screening Cc1ccc(CNC(=O)CCc2nnc3n(C)c(=O)c4sccc4n23)cc1 returned FEN1 inh -13.0%.
Screening COc1cccc(NC(=O)C2CCN(S(=O)(=O)c3cccc4nonc34)CC2)c1 returned FEN1 inh 1.3%.
CC1(C)NC(=O)N(CC(O)COc2ccccc2C(=O)N2CCCCC2)C1=O (stereo not given) was read as N370S GC mod -13.4% and FEN1 inh 6.5%.
`CC1CCN(c2nc(Cl)nc(Nc3ccc([N+](=O)[O-])cc3)n2)CC1` gave N370S GC mod -15.3% and FEN1 inh 0.1%.
`CCOc1ccc(/C=C2/C(=N)N3OC(C)=CC3=NC2=O)cc1OC` gave N370S GC mod -6.6% and FEN1 inh 11.4%.
`COc1nccnc1NS(=O)(=O)c1ccc(NC(=S)NC(=O)/C=C/c2ccccc2)cc1` gave N370S GC mod -2.1% and FEN1 inh 0.4%.
Cc1cccc(OCC(=O)NNC(=O)c2ccc3nc[nH]c3c2)c1 was read as FEN1 inh -3.4%.
COC(=O)c1cc(S(=O)(=O)Nc2cc(S(=O)(=O)N(C)C)ccc2C)oc1C was read as N370S GC mod -2.1% and FEN1 inh -5.9%.
For COc1ccc(NC(=O)CSc2nnc(Cc3ccccc3)c(=O)n2N)c(OC)c1 the results were N370S GC mod 13.2% and FEN1 inh 0.3%.
Cc1ccc(-c2nn(-c3ccccc3)cc2/C=C/C(=O)O)o1 was read as N370S GC mod 11.3% and FEN1 inh -0.6%.
Screening CCOc1ccc(CC2c3cc(OCC)c(OCC)cc3CCN2C(=O)c2cc(OC)c(OC)c(OC)c2)cc1OCC (stereo not given) returned N370S GC mod -14.8% and FEN1 inh 3.9%.
Screening COc1cccc(-c2csc(N3CCN(C(=O)Nc4ccc(F)cc4)CC3)n2)c1 returned N370S GC mod -3.8% and FEN1 inh -14.9%.
`Cc1ccc(N2CCN(S(=O)(=O)N3CCCCC3)CC2)cc1C` gave N370S GC mod 25.0% and FEN1 inh 0.1%.
`C=CCN(c1ccccc1)S(=O)(=O)c1ccc(Cl)c(C(=O)OCC(=O)N(C)C2CCS(=O)(=O)C2)c1` (stereo not given) gave N370S GC mod -5.6% and FEN1 inh -14.3%.
For NC(=Nc1ccccc1)NC(=O)c1nc(Cl)c(N)nc1N the results were N370S GC mod 1.5%&-6.0%&-4.8% and FEN1 inh 1.2%.

Nothing new here: six of the compounds above.
Screening Cc1ccc(CNC(=O)CCc2nnc3n(C)c(=O)c4sccc4n23)cc1 returned FEN1 inh -13.0%.
Screening COc1cccc(NC(=O)C2CCN(S(=O)(=O)c3cccc4nonc34)CC2)c1 returned FEN1 inh 1.3%.
CC1(C)NC(=O)N(CC(O)COc2ccccc2C(=O)N2CCCCC2)C1=O (stereo not given) was read as N370S GC mod -13.4% and FEN1 inh 6.5%.
`CC1CCN(c2nc(Cl)nc(Nc3ccc([N+](=O)[O-])cc3)n2)CC1` gave N370S GC mod -15.3% and FEN1 inh 0.1%.
`CCOc1ccc(/C=C2/C(=N)N3OC(C)=CC3=NC2=O)cc1OC` gave N370S GC mod -6.6% and FEN1 inh 11.4%.
`COc1nccnc1NS(=O)(=O)c1ccc(NC(=S)NC(=O)/C=C/c2ccccc2)cc1` gave N370S GC mod -2.1% and FEN1 inh 0.4%.

The list goes on.
O=C(COC(=O)/C=C/c1cccc([N+](=O)[O-])c1)NCc1ccco1 was read as N370S GC mod -1.1% and FEN1 inh 15.6%.
`Cc1ccc(C(=O)OCC(=O)NCC(F)(F)F)cc1C` gave N370S GC mod 1.6% and FEN1 inh 2.7%.
For COc1ccc(C(=O)N/C(=C\c2cn(C)c3ccccc23)C(=O)NCCCN2CCOCC2)cc1 the results were N370S GC mod inconclusive and FEN1 inh -1.5%.
CCn1cc(C(=O)NC2CCCCC2)c(=O)c2cc(S(=O)(=O)N(C)C)ccc21 was read as N370S GC mod -19.9% and FEN1 inh 8.0%.
Screening COc1cc(Cl)ccc1OCc1cc(C(=O)N2CC[C@@H]3CCCC[C@H]3C2)no1 returned N370S GC mod -6.4% and FEN1 inh 1.4%.
For CCCC1(c2ccccc2)NC(=O)N(CC(=O)Nc2cc(C)on2)C1=O (stereo not given) the results were N370S GC mod -5.4% and FEN1 inh -5.6%.
For CN(CC(=O)Nc1ccc(F)cc1)C(=O)Cn1nnc(-c2ccccc2)n1 the results were N370S GC mod -18.1% and FEN1 inh 7.6%.
For Cc1ccc(-c2noc(-c3ccccc3NC(=O)c3ccccc3)n2)cc1 the results were FEN1 inh 19.7%.
`CCO[C@@H]1OC(C(=O)N2CCN(Cc3ccc4c(c3)OCO4)CC2)=C[C@H](c2ccc(Br)cc2)[C@H]1CCCO` gave N370S GC mod -18.5% and FEN1 inh -0.2%.
